High-throughput results: PubChem, National Center for Advancing Translational Sciences (NCATS)
GLP1R ag: activates the human GLP-1 receptor; P43220; HEK293 GLP-1R CRE-luciferase, luminescence, 4-6 h; cells express a hypersensitive GLP-1R form; Potency, µM (series often up to 45.6 µM), without a hit: at the highest dose activation, most hits filed as activators; 380,000 tested, 0.007% active; note: potency is the fitted concentration of half-maximal effect; % of control where 0% means no effect
Target sequence (P43220 whole entry, looked up): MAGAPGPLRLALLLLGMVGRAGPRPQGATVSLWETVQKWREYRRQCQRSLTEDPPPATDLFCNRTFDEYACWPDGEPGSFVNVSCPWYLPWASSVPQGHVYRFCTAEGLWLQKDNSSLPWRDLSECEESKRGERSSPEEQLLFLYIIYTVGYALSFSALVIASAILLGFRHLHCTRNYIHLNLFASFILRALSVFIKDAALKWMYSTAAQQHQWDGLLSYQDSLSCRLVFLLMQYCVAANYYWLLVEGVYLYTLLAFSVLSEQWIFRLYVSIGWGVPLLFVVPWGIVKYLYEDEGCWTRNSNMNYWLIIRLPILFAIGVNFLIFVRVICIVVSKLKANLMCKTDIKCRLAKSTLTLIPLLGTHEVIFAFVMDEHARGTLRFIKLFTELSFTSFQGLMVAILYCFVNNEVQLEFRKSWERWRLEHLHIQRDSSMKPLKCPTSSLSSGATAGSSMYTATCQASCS
DRD3 agonist: agonists of human D3 dopamine receptor. D3R DiscoveRx beta-arrestin cells, luminescence, 90 min. P35462. max activation, %. 410,000 tested, 0.58% active; in the data active = max activation above about 30%; note: 0% is about no effect; mostly tested at two doses, the higher about 12 µM
Target sequence (P35462 whole entry, looked up): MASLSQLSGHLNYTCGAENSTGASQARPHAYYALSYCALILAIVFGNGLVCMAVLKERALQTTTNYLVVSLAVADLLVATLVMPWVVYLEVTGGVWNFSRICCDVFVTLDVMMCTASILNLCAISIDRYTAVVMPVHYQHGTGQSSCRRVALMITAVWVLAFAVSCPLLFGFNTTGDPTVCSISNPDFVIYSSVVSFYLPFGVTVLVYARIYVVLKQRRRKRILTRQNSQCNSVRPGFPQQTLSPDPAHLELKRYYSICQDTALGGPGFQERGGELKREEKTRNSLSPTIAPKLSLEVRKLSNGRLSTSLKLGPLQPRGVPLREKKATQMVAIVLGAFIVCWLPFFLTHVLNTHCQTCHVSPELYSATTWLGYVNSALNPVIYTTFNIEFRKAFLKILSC
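Agonist-mode cell screen: cells plated at 1500/well and incubated overnight at 37 °C, then exposed to library compounds for 90 min at 37 °C. Detection reagent was added for 30–60 min at room temperature, and luminescence was read.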
KB-V1 MDR tox: KB-V1 MDR subline cytotoxicity; 400,000 tested, 3.4% active; AID 1347076; Potency, µM (doses to about 46.1 µM), for inactives: at the highest dose activity change, negative = cytotoxicity, actives largely listed as cytotoxic; KB-V1 MDR cells viability, CellTiter-Glo, 72 h; note: potency is the fitted concentration of half-maximal effect; % is set by controls: 0 for no effect and ±100 for the full control effect; nearly all actives have a fitted effect of over 60% in size
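Cytotoxicity via CellTiter-Glo luminescence after 72 h compound exposure at 37 degrees C. Cells: drug-selected KB-V1 line, DMEM phenol-red free plus 10% FBS. Compounds tested at multiple concentrations; normalized data fitted to concentration-effect curves.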
DRD3 antagonist: blocks the human D3 dopamine receptor; D3R cells, DiscoveRx beta-arrestin luminescence, antagonist mode; active compounds read low; AID 652054; 360,000 tested, 2.5% active; max response, negative = inhibition, %; P35462; in the data active = max response below about -50%; inconclusive = no clear call, values can overlap the other calls; note: % is set by controls: 0 for no effect and ±100 for the full control effect; mostly tested at two doses, the higher about 12 µM
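Cells plated overnight at 1500 cells/well, then exposed to library compounds with dopamine controls for 90 minutes at 37 degrees C. DiscoveRx reagent added for 30–60 minutes at room temperature; luminescence read, quantitative HTS format.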
HEK293 tox: cytotoxic in the GLP-1 receptor inverse agonist counter-screen | Potency, µM (top dose mostly 38.3 µM), for the others: top-dose activity change, negative = inhibition, usual class: inhibitors | AID 624418 | 410,000 tested, 0.13% active | HEK293 cAMP-luciferase reporter cells, luminescence, 24 h;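 note: loss of luciferase light is scored as toxicity; potency is the fitted concentration of half-maximal effect; % is set by controls: 0 for no effect and ±100 for the full control effect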
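Cells in DMEM/10% Nu serum/1% pen-strep, 1536-well format. Pre-incubated 12 h, dosed with 23 nL compound, incubated a further 24 h. Luciferase detection, 12 min at room temp, luminescence.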
GLP1R inv ag: inverse agonists of human GLP-1 receptor; P43220; HEK293 GLP-1R CRE-luciferase, luminescence, 24 h; GLP-1R form is constitutively active; Potency, µM (doses to about 38.3 µM), for the others: top-dose activity change, negative = inhibition, most hits filed as inhibitors; 410,000 tested, 1.6% active; AID 624417; note: potency is the fitted concentration of half-maximal effect; % is set by controls: 0 for no effect and ±100 for the full control effect; nearly all actives have a fitted effect of over 55% in size
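Cells are plated, allowed 12 hours at 37 deg C, then treated with compounds for 24 hr before luciferase detection reagent is added and luminescence is read after 12 min at room temperature. The HEK293 line carries constitutively active GLP-1R with a cAMP-responsive reporter.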
aSyn yeast inh: alpha-synuclein toxicity inhibition in yeast | Yeast expressing alpha-synuclein, growth rescue, BacTiter-Glo, 24 h | Potency, µM (highest dose often 46.1 µM), inactives show top-dose growth rescue (activation), usual class: activators | 370,000 tested, 0.14% active | AID 652106; note: potency is the fitted concentration of half-maximal effect; % of control where 0% means no effect; nearly all actives have a fitted effect of over 65% in size
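Screening used galactose-induced yeast with toxic alpha-synuclein levels, exposed to compound for 24 hr at 30 deg C. Cell growth, read with BacTiter-Glo luminescence, gave the measured signal.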
TDP43 rescue: inhibitors of TDP-43 toxicity in yeast. TDP-43 expressing yeast growth rescue, BacTiter-Glo, 24 h. Potency, µM (doses to about 46.1 µM), for inactives: top-dose growth rescue (activation), usual class: activators. 410,000 tested, 1.8% active. AID 652104; note: potency is the fitted concentration of half-maximal effect; % of control where 0% means no effect; nearly all actives have a fitted effect of over 50% in size
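Luminescence from BacTiter-Glo reports growth of TDP-43-expressing yeast after 24 hr at 30 deg C with compound. Cells were raffinose-pregrown to mid-log, then seeded in galactose medium at OD600=0.02.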
Active calls of the source: *; ? = inconclusive; . = not tested or not shown; ! = repeats disagree; [ ] = remark or other dose. Unless noted, calls come from the whole dose curve; as a rule, active = well fitted curve in the direction sought with a large enough effect; inconclusive = small, poorly fitted or top-dose-only effect, or another doubt; inactive = no such curve, though single readings can be large; an effect the other way counts as inactive or inconclusive.

SMILES	GLP1R ag	DRD3 agonist	KB-V1 MDR tox	DRD3 antagonist	HEK293 tox	GLP1R inv ag	aSyn yeast inh	TDP43 rescue
CC(C)c1nnc(NC(=O)CCC(=O)NCc2cccs2)s1	-15%	2	-1%	20	-11%	-1%	-7%	1%
COc1ccc(/C(C)=N/NC(=O)c2ccc(NS(=O)(=O)c3cccs3)cc2)cc1	-3%	4	-3%	11	7%	13%	0%	9%
CC(C)NC(=O)NC(=O)COC(=O)Cc1c(F)cccc1Cl	9%	8	19%	5	5%	-5%	4%	-7%
O=c1[nH]c2ccc(Cl)cc2c(-c2ccccc2)c1N1CCN(c2ccccn2)CC1	0%	-21	13µM*	-23	-1%	0%	-19%	-13%
COc1ccc(C2SCC(C(=O)NCc3ccc(F)cc3)N2C(C)=O)cc1 (stereo not given)	-4%	6	5%	27	?	-14%	27%	19%
COc1cc(/C=C/C(=O)O)cc(S(=O)(=O)NNC(=O)c2cc(C)oc2C)c1OC	4%	0	?	0	0%	9%	-2%	-28%
CCOC(=O)[C@@H](C)N(Cc1ccc(OC)cc1)S(=O)(=O)N(Cc1ccccc1)[C@H](C(=O)OC)C(C)C	9%	16	9.2µM*!	12	10%	?	-20%	11%
CSC1=N/C(=C\c2ccccc2Cl)C(=O)N1N(C)C	27%	6	20%	2	4%	-16%	0%	23%
CCn1c(CN2CCCCC2)nc2cc(NC(=O)COc3ccccc3C(C)(C)C)ccc21	.	-28	1%	.	19%	-27%	.	0%
Clc1ccccc1-c1nc(-c2ccccc2)n[nH]1	0%	-3	1%	-6	-20%	-7%	-2%	13µM*
Cc1cc(C(F)(F)F)nc(SCc2ccc(C(=O)O)o2)n1	4%	-6	11%	6	-7%	8%	-6%	-1%
CCOc1ccc(/C=C/c2nc(C#N)c(N3CCCCCC3)o2)cc1	.	11	.	.	23%	-8%	.	?
CC(=O)N/C(=C\c1ccccc1)C(=O)OC(C)C(=O)Nc1ccccc1F (stereo not given)	1%	-1	-7%	-11	0%	5%	-1%	0%
COc1ccc2cc(Br)ccc2c1CC(=O)NC1CC(C)(C)NC(C)(C)C1	-7%	0	?	0	?	0%	0%	-1%
Cc1cc(C)c2nc(NC(=O)C3CCCO3)sc2c1 (stereo not given)	5%	-1	1%	1	1%	-23%	13%	?
COc1ccc(NC(=O)CCC(=O)Nc2nnc(C(C)C)s2)cc1Cl	5%	-10	?	-20	-4%	6%	-9%	-9%
COc1cccc(C(=O)COc2ccccc2N2C(=O)C3C4C=CC(C4)C3C2=O)c1 (stereo not given)	1%	-3	10%	-15	2%	2%	13%	4%
COC(=O)[C@@H](CC(C)C)NS(=O)(=O)N(Cc1ccccc1)[C@@H](CC(C)C)C(=O)OC	2%	11	?	0	-21%	?	-11%	20%
O=C(Nc1ccccc1)N1C(=O)C2(OCCO2)c2ccccc21	-2%	-9	14%	-21	19%	-2%	-5%	0%
CN(C)CC(C)(C)CNS(=O)(=O)c1cccc(Cl)c1Cl	4%	6	4%	9	19%	-20%	2%	-1%
CS(=O)(=O)c1ccc(C(=O)OCC(=O)NC(=O)Cc2ccccc2)cc1	7%	-3	7%	-3	0%	13%	-8%	-8%
COC(=O)c1scc(S(C)(=O)=O)c1-n1cccc1	-3%	-7	24%	-11	-15%	9%	1%	8%
CN(C)c1oc(/C=C/c2ccccc2)nc1C#N	-3%	3	?	10	270%[activator]	3%	10%	25%
CCN(CCNC(=O)C1CCN(S(=O)(=O)CC)CC1)c1ccccc1	-1%	1	-26%	15	-3%	-25%	0%	-3%
CCCn1c(C)cc(C(=O)COc2ccc(S(=O)(=O)N(CC)CC)cc2[N+](=O)[O-])c1C	-1%	-5	-18%	10	8%	?	5%	13%
Cn1nnnc1SCCCNCc1cccc(OCc2ccccc2)c1	.	-19	11%	.	-7%	?	.	0%[9.22 µM]
Fc1ccc(-n2ncc3c(SCc4cccnc4)ncnc32)cc1	4%	1	?	5	-6%[7.66 µM]	56%[activator][7.66 µM]	4%	?
COc1ccccc1C1CN(c2ccccc2)N=C1c1cccs1 (stereo not given)	0%	-6	10%	5	.	0%	-18%	10%
CC1(C)NC(=O)N(CNc2cc(Cl)ccc2Cl)C1=O	-4%	0	4%	-10	-8%	-24%	3%	11%
COC(=O)/C=C/c1ccc(OC(=O)OC)c(OC(=O)OC)c1	-1%	20	3%	5	?	19%	10%	-3%
Cc1ccc(NC(=O)c2ccc(N/N=C/c3cccc(O)c3)c([N+](=O)[O-])c2)cc1	6%	-6	?	?	3%	20%	-1%	13%
COc1cc(O)ccc1C(=O)CCc1ccc(O)cc1	1%	4	2%	11	9%	-1%	1%	-18%
C=CCn1c(CCNC(=O)c2ccccc2F)nnc1SCC(=O)Nc1ccccc1F	0%	0	?	0	6%	0%	-5%	-4%
Cc1cc2ncc(-c3ncc(C(F)(F)F)cc3Cl)cn2n1	-22%	-17	-3%	10	12%	5µM*	-8%	-27%
COc1ccccc1C1/C(=C(/O)c2ccccc2)C(=O)C(=O)N1CC(C)O (stereo not given)	-13%	7	2%	0	-22%	-9%	5%	12%
COc1ccc(-c2nc(CS(=O)CC(=O)NC3CCCCCC3)c(C)o2)cc1 (stereo not given)	14%	0	-15%	0	-12%	-27%	-1%	-1%
COc1cc2c(cc1OC)-c1cc(N3CCCc4ccccc43)nc(=O)n1CC2	?	15	13%	-20	25%	339%[activator]	0%	-16%
CCCn1nnnc1NCc1ccccc1OCc1ccc(F)cc1	0%	3	?	4	-15%	-20%	1%	-20%
O=C(O)c1cc(Cl)c(Cl)cc1C(=O)N1CCCC1	-4%	-4	10%	-19	-19%	0%	-5%	-13%
N#CC(c1ccccc1F)(c1ncc(C(F)(F)F)cc1Cl)N1CCOCC1 (stereo not given)	-13%	-16	-5%	?	2%	0%	-6%	-5%
CC(C)c1ccccc1NC(=O)COC(=O)CNC(=O)c1ccc(Br)cc1	0%	-2	7%	17	5%	1%	5%	-11%
CN(C)S(=O)(=O)NCc1ccc2c(c1)OCO2	-1%	2	0%	9	-10%	8%	-2%	4%
CC(=O)Nc1ccc(NC(=O)C(C)Sc2nc3ccccc3c(=O)n2CC2CCCO2)cc1 (stereo not given)	2%	5	-8%	7	-6%	4%	-7%	-17%
Cc1cc(N2C(=O)C3CC=CCC3C2=O)no1 (stereo not given)	-2%	-1	-4%	4	-9%	0%	2%	0%
CC(=O)NS(=O)(=O)c1cccnc1Nc1ccc(Cl)cc1	6%	4	0%	8	22%	-5%	0%	-3%
CCOCCCNC(=O)NC(C)c1c(-n2cccc2)sc2c1CCN(CC)C2 (stereo not given)	.	-15	.	.	54%[activator]	6%	.	-7%
CCN1CCN(c2oc(/C=C/c3ccccc3)nc2C#N)CC1	13%	-3	6%	20	1%	15%	0%	8%
COC(=O)c1ccc(NC(=O)C(=O)N2CCN(C(=S)Nc3ccc(OC)cc3)CC2)cc1	1%	-3	21µM*	-22	62%[activator]	-8%	-2%	-6%
Cc1cc2c(cc1S(=O)(=O)N(C)c1ccccc1)NC(=O)CO2	5%	6	3%	24	-9%	-12%	3%	1%
O=C(CCC(=O)c1cccs1)NCc1cccc(C(F)(F)F)c1	-3%	-13	?	-1	4%	-36%	7%	-3%
The list goes on:
SMILES	GLP1R ag	DRD3 agonist	KB-V1 MDR tox	DRD3 antagonist	HEK293 tox	GLP1R inv ag	aSyn yeast inh	TDP43 rescue
CS(=O)(=O)c1ccc(-c2csc(-c3cccnc3)n2)cc1	20%	-1	-1%	-1	-3%	46%[activator]	7%	14%
NS(=O)(=O)c1cccnc1Nc1cccc(Cl)c1Cl	4%	-12	0%	17	-15%	?	-5%	?
O=C(CN1CC[C@@]2(O)CCCC[C@H]2[C@@H]1c1ccc(F)cc1)NCc1ccco1	8%	-10	?	-9	-2%	6%	-2%	-28%
Cc1cccc(NC(=O)c2sc(-n3nc(C)c(Cc4ccc5c(c4)OCO5)c3C)nc2C)c1C	.	-5	?	.	-10%	-22%	.	-24%
C=CCc1ccc(OCCCCOc2ccc(C(=O)O)cc2)c(OC)c1	4%	2	22%	-1	13%	39%[activator]	4%	22%
CC(C)CN1CCC(CN2CCNC(=O)C2=O)CC1	-5%	10	-10%	17	-9%	13%	-11%	8%
O=C(c1cnccn1)N1CCN(c2ccccc2)CC1	-23%	6	-2%	15	-12%	5%	-3%	16%
Cc1ccc(NC(=O)CS(=O)CC(=O)NCCCc2ccccc2)cc1Cl (stereo not given)	2%	3	-12%	-14	-24%	10%	-1%	-15%
O=C(Nc1nnc(CCN2CCCCC2)s1)c1ccccc1Cl	-4%	-5	7%	2	4%	15%	?	5%
CC(C)(C)OC(=O)CNC(=O)c1[nH]cnc1C(=O)NC1CCNCC1	-1%	-12	-8%	-2	-21%	11%	-3%	14%

Arranged by SMILES length (rising): part of the list above.
SMILES	GLP1R ag	DRD3 agonist	KB-V1 MDR tox	DRD3 antagonist	HEK293 tox	GLP1R inv ag	aSyn yeast inh	TDP43 rescue
Cn1nnnc1SCCCNCc1cccc(OCc2ccccc2)c1	.	-19	11%	.	-7%	?	.	0%[9.22 µM]
O=C(Nc1nnc(CCN2CCCCC2)s1)c1ccccc1Cl	-4%	-5	7%	2	4%	15%	?	5%
Cc1cc2c(cc1S(=O)(=O)N(C)c1ccccc1)NC(=O)CO2	5%	6	3%	24	-9%	-12%	3%	1%
Cc1ccc(NC(=O)CS(=O)CC(=O)NCCCc2ccccc2)cc1Cl (stereo not given)	2%	3	-12%	-14	-24%	10%	-1%	-15%

Later entries
SMILES	GLP1R ag	DRD3 agonist	KB-V1 MDR tox	DRD3 antagonist	HEK293 tox	GLP1R inv ag	aSyn yeast inh	TDP43 rescue
O=[N+]([O-])c1c(NCCO)cc(N2CCCCC2)c2nonc12	8%	-1	-5%	7	?	62%[activator]	3%	10%
COC(=O)c1scc(C)c1N/N=C(\C)c1ccc(F)cc1	1%	0	-12%	30	-8%	0%	0%	15%
COc1ccc(C2NC(c3ccc(OC)cc3OC)C(C)C(=O)C2C)c(OC)c1 (stereo not given)	14%	1	-7%	13	4%	50%[activator]	0%	15%
CN(C)CCNC(=O)CCCNC(=O)Cn1cnc2sc3c(c2c1=O)CCCC3	2%	1	4%	6	-9%	0%	4%	?
Cc1ccc(NC(=O)CCN2CCN(CCO)CC2)cc1C	.	-3	?	.	-4%	2%	.	11%
Cc1ccc(NC(=O)CCN2CCN(CCO)CC2)cc1Br	9%	0	-21%	-13	3%	?	0%	-11%

Some of the compounds tested (hit frequency here may not be typical).
